Bioassay records: PubChem BioAssay, several laboratories
Rce1 inh – blocks yeast Ras-converting enzyme | Q03530 | yeast membranes, quenched prenylated peptide cleavage fluorescence | calls only | 0.27% of 290,000 active | AID 2563;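 active = fall in fluorescence gain of 50% or more versus controls, with final raw signal at or below 3038400; inconclusive = same 50% fall but final raw signal above 3038400; inactive = fall in fluorescence gain under 50%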;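 note: plate controls were neutral control wells for no effect and wells lacking membranes for full effect; tested at 10 µM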
MT1-MMP act inh – MT1-MMP (human) activation inhibition | P50281 | HT1080 RFP-PRO-GFP cells, GFP/RFP ratio fluorescence, overnight; percent of plate control window, DMSO zero | GFP/RFP ratio change, % at 20 µM | 0.061% of 360,000 active;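 active = GFP/RFP ratio change of at least 30% with cell ATP level not reduced by more than half and red fluorescence within 50% of control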; note: strong numbers were not always called active
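Compound: 20 µM single dose, 1% DMSO / System: HT1080 RFP-PRO-GFP cells / Controls: DMSO and RFP-L50D-GFP cell wells / Read-out basis: GFP/RFP fluorescence ratio / Schedule: overnight compound exposure at 37 °C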
CSC inhib – blocks cancer stem cells; cancer stem cell-like cells viability, luminescence; inhibition, % at 7.5 µM; 1.1% of 300,000 active; AID 2717;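 active = mean at 75% or more and at least half the replicates too; inconclusive = mean and replicates disagree; tested in HMLE shEcad cells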;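 note: 0% = median of negative and 100% = median of positive control wells; the first replicate is given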
eIF4H FP inh – inhibitors of RNA binding by human eIF4H. inhibition, % at 35 µM. eIF4H fluorescence polarization binding assay. AID 2012. 0.94% of 290,000 active. Q15056;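 active = 50% or more with normal probe brightness, or confirmed in later tests; inconclusive = above 50% with abnormal brightness, or retests that disagree; inactive = below 50% or failed in later tests; about a fifth of its hits are not listed in these tables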;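 note: calls also rest on retests at 20 µM and on dose response follow-up; 0% = protein and probe with vehicle and 100% = probe without protein; strong numbers were not always called active; many hits fall short of the cut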
Yeast UUG start – modulators of start codon recognition fidelity in yeast | 0.13% of 350,000 active | AID 602363 | activity score, % at 18.7 µM | S. cerevisiae UUG-firefly luciferase reporter, luminescence/redox ratio;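 active = replicate mean at a twofold rise or more, about +100% in these data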;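 note: firefly luciferase made from a UUG start codon reports start codon fidelity; reporter light over untreated wells divided by growth signal over untreated wells; some hits fall short of that in this replicate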
PABP polyA inh – PABP-poly(A) binding inhibition; P11940; PABP-poly(A) RNA binding, fluorescence polarization; inhibition, % at 35 µM; 1% of 290,000 active;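 active = 50% or more with normal probe brightness, or confirmed in later tests; inconclusive = above 50% with abnormal brightness, or retests that disagree; inactive = below 50% or failed in later tests; about a fifth of its hits are not listed in these tables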;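 note: calls also rest on retests at 20 µM and on dose response follow-up; controls were probe without protein and protein plus probe with vehicle; some compounds called inactive have numbers as strong as hits; many hits fall short of the cut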
Target sequence (P11940 whole entry, looked up): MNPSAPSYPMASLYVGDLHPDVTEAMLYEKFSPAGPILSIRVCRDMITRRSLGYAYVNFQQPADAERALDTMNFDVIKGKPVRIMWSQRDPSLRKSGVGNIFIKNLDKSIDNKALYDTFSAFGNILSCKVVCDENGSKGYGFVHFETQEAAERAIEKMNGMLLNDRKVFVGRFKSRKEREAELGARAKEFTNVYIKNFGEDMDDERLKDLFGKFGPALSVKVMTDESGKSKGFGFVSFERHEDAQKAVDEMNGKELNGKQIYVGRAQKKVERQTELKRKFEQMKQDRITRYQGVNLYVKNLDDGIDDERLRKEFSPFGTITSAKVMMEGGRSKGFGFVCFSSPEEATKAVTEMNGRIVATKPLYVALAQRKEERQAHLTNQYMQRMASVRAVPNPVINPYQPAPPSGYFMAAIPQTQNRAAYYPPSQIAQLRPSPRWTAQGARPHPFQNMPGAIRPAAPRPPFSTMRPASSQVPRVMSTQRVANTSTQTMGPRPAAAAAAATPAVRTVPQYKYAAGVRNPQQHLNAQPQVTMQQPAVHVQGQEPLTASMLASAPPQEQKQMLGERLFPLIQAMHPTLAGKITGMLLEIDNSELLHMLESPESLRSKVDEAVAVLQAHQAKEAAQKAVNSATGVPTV
HIV Env fusion – HIV envelope-mediated fusion inhibition; inhibition, % at 12.3 µM; AID 651610; 1.1% of 360,000 active; HeLa-JRFL Env/CEM21 cell fusion, luciferase;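 active = mean replicate inhibition score of at least 50 and every replicate individually at or above 50; inconclusive = only one of the two criteria met; inactive = mean below 50 and not all replicates reaching 50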;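 note: 0% = plate neutral controls and 100% = maraviroc near 300 nM; one replicate is shown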
eIF4H FP inh retest – also measured in eIF4H FP inh; calls as there; inhibition, %; compound at 20 µM; confirmation average;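 mean of two retest wells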
PABP polyA inh retest – also measured in PABP polyA inh; calls as there; inhibition, %; compound at 20 µM; confirmation repeats;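 mean of two retest wells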
MT1-MMP act inh RFP – second read-out of MT1-MMP act inh, no call of its own (marks repeat the call); RFP signal change, %; measured here: RFP expression control read;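 0 = vehicle wells; hits needed this value within 50% of zero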
An asterisk follows results filed as active; i = inactive; u = inconclusive; x = not tested or not shown.

SMILES | Rce1 inh | MT1-MMP act inh | MT1-MMP act inh RFP | CSC inhib | eIF4H FP inh | Yeast UUG start | PABP polyA inh | HIV Env fusion | others
O=C(NNC(=O)C1CC(c2cccs2)=NO1)NC1CCCCC1 (centres undefined) | i | 2 | 4 | -14 | -7 | -9 | 0 | -38
COc1cccc(/C=N/NC(=O)c2ccc([N+](=O)[O-])cc2Cl)c1O | i | -8 | -9 | -3 | 5 | x | -5 | 12
COc1ccc(Nc2c3c(c(C#N)c4nc5ccccc5n24)CCC3)cc1 | i | -4 | 2 | 1 | -3 | 2 | -2 | x
Cn1cccc1C(=O)OCC(=O)N1CC(=O)Nc2ccccc21 | i | 1 | 1 | -6 | -6 | 0 | 16 | 1
Cc1ncc(CO)c(/C=N/Nc2ccc(C(F)(F)F)cn2)c1O | i | -16 | -8 | 89* | 28 | 7 | 24 | 26
CC1=NN(C(=O)COc2cc(C)ccc2C(C)C)C(O)(c2ccccc2)C1 (centres undefined) | i | 2 | -2 | -9 | 8 | x | -5 | -2
COc1cccc(C2CC(=O)NC3=C2C(=O)CCC3)c1 (centres undefined) | i | -6 | 1 | -18 | 1 | 3 | 2 | x
Cc1ccc2nc3c(c(Nc4ccc5c(c4)OCCO5)c2c1)CCC3 | i | 1 | -7 | -1 | -2 | -13 | -3 | -12
COc1cc2c(cc1OC)C(COc1ccccc1OC)N(C(C)=O)CC2 (centres undefined) | i | -1 | -1 | x | 0 | -8 | 0 | 20
CCCCNC(=O)OCC(CC)NC(=O)OCC(C)C (centres undefined) | i | 1 | 0 | x | -14 | -1 | -12 | 9
CCC/C(O)=C1\C(=O)CC(C)(C)CC1=Nc1ccc(OC)cc1OC | i | -5 | -13 | -3 | -14 | -3 | -9 | x
Cc1ccc(/C=C2/NC(=O)N(Cc3ccccc3F)C2=O)s1 | i | -57 | 6 | 12 | u | x | -10 | -2
CC(=O)Nc1ccc(Cc2nc3ccccc3[nH]2)cc1 | i | 1 | 4 | -7 | -4 | x | -11 | 6
Cc1ccc(/C=C(\NC(=O)c2ccccc2)C(=O)NCCN2CCOCC2)o1 | i | 0 | 0 | x | -12 | -4 | -10 | 4
Cc1cc(CN2C(=O)c3ccccc3C2=O)on1 | i | 3 | 1 | -1 | -4 | -10 | -9 | -42
COc1cc(NC(=O)C2CC(=O)NC3=C2C(=O)CCC3)cc(OC)c1 (centres undefined) | i | -1 | 4 | -5 | 9 | -12 | 2 | x
CCn1nc(C(=O)OCC(=O)N2c3ccccc3CC2C)c2ccccc2c1=O (centres undefined) | i | 3 | 4 | -13 | -8 | 4 | 9 | 15
Cc1onc(-c2c(F)cccc2Cl)c1C(=O)NCc1ccccn1 | i | -1 | 4 | -15 | -5 | -13 | 3 | 2
CCCC(=O)Nc1nnc(S(=O)(=O)N(C)Cc2ccco2)s1 | i | -4 | 1 | 8 | 14 | -19 | 32 | x
O=C(CC(=O)Nc1ccccc1)Nc1ccccc1 | i | 6 | 0 | -11 | x | x | x | -26

An excerpt from above in order of heavy-atom count, ascending.
SMILES | Rce1 inh | MT1-MMP act inh | MT1-MMP act inh RFP | CSC inhib | eIF4H FP inh | Yeast UUG start | PABP polyA inh | HIV Env fusion | others
COc1cccc(C2CC(=O)NC3=C2C(=O)CCC3)c1 (centres undefined) | i | -6 | 1 | -18 | 1 | 3 | 2 | x
CCCC(=O)Nc1nnc(S(=O)(=O)N(C)Cc2ccco2)s1 | i | -4 | 1 | 8 | 14 | -19 | 32 | x
Cc1ncc(CO)c(/C=N/Nc2ccc(C(F)(F)F)cn2)c1O | i | -16 | -8 | 89* | 28 | 7 | 24 | 26
CC1=NN(C(=O)COc2cc(C)ccc2C(C)C)C(O)(c2ccccc2)C1 (centres undefined) | i | 2 | -2 | -9 | 8 | x | -5 | -2
CCn1nc(C(=O)OCC(=O)N2c3ccccc3CC2C)c2ccccc2c1=O (centres undefined) | i | 3 | 4 | -13 | -8 | 4 | 9 | 15

The listing picks up, repeating the 3 entries before the break.
SMILES | Rce1 inh | MT1-MMP act inh | MT1-MMP act inh RFP | CSC inhib | eIF4H FP inh | Yeast UUG start | PABP polyA inh | HIV Env fusion | others
Cc1onc(-c2c(F)cccc2Cl)c1C(=O)NCc1ccccn1 | i | -1 | 4 | -15 | -5 | -13 | 3 | 2
CCCC(=O)Nc1nnc(S(=O)(=O)N(C)Cc2ccco2)s1 | i | -4 | 1 | 8 | 14 | -19 | 32 | x
O=C(CC(=O)Nc1ccccc1)Nc1ccccc1 | i | 6 | 0 | -11 | x | x | x | -26
NC(=O)COC(=O)C12CC3CC(CC(O)(C3)C1)C2 | i | 0 | 8 | 8 | -4 | x | -5 | 10
C#Cc1ccc([C@@H]2C=C(C(=O)N3CCOCC3)O[C@H](OCc3ccc(CO)cc3)C2)cc1 | i | -3 | 0 | -4 | x | 18 | x | 16
CN(CC(=O)Nc1ccccc1Cl)CC(=O)N1CCc2ccccc21 | x | -3 | -3 | x | x | -12 | x | -6
O=C(CCNS(=O)(=O)c1cccc2nsnc12)NCc1ccc(F)cc1 | i | -4 | -2 | -4 | -4 | x | 67 | 10 | eIF4H FP inh retest=-4;PABP polyA inh retest=4
O=C(NC1CCCCC1)C1CCCN(S(=O)(=O)c2ccc(F)cc2)C1 (centres undefined) | i | -1 | -2 | 0 | 3 | 26 | 4 | 0
O=C(NC1CC1)c1ccc2sc([C@@H]3O[C@H](CO)[C@H](O)[C@H](O)[C@H]3O)nc2c1 | x | 2 | 7 | x | x | 3 | x | 8
Clc1nccnc1N/N=C/c1ccc(Br)cc1 | i | -2 | -2 | 31 | 3 | -59 | 8 | -56
CCC1=Nc2cc(C(=O)NCCCOC)ccc2Sc2ccccc21 | i | 13 | -3 | 56 | 10 | -8 | -2 | -20
C=CCn1c(CCNC(=O)c2cccs2)nnc1SCC(=O)c1cccc([N+](=O)[O-])c1 | i | 3 | -2 | -1 | -4 | -14 | -4 | x
CC1=CC(C)(C)NC(=S)N1CCO | x | -2 | -1 | x | x | -12 | x | -3
COC(=O)CSc1nc(Cc2ccccc2)nc2ccccc12 | i | 2 | 2 | -4 | 6 | x | 15 | 48
CN1c2ccccc2N(C)C1c1ccc2c(c1)OCO2 | i | -6 | -1 | -11 | -8 | -7 | 0 | 63*
C=CCn1c(SCC(=O)NCC2CCCO2)nc2scc(-c3ccco3)c2c1=O (centres undefined) | i | -9 | 2 | -15 | 42 | -13 | 46 | -89
COc1ccccc1CNC(=O)COC(=O)Cc1c(F)cccc1Cl | i | -3 | 0 | 9 | -5 | x | 12 | -7
O=C(CCCC(=O)OCC(F)(F)C(F)F)Nc1ccccc1F | i | 1 | 2 | -3 | -6 | x | 5 | -3
Cc1nc(NC(=O)CSc2nnc(-c3ccc4c(c3)OCO4)o2)c(Cl)cc1Cl | i | 0 | 5 | 6 | -1 | -8 | 0 | -20
Oc1ccccc1C(=S)N1CCCCC1 | i | 2 | 7 | -3 | -6 | -17 | 1 | x
CCCCc1ccc(NC(=O)Nc2c(C)n(C)n(-c3ccccc3)c2=O)cc1 | i | 1 | -3 | 4 | 2 | 0 | 3 | 1
O=c1c2ccccc2nc(-c2ccccc2)n1CCCN1CCOCC1 | i | -2 | 6 | -4 | 6 | -4 | 2 | 24
COc1cc([N+](=O)[O-])c(C(=O)N2CCOCC2)c([N+](=O)[O-])c1 | i | 1 | 4 | -4 | 2 | x | -4 | -13
O=C(c1ccc2ccccc2c1)C1CCCN(C(=O)CCn2cnnn2)C1 (centres undefined) | i | 1 | 3 | -8 | -4 | -15 | -3 | 12
COC(=O)c1ccc(NC(=O)CS(=O)(=O)Cc2ccccc2)cc1 | i | -4 | -3 | -12 | -7 | -13 | -4 | x
CCC(=O)N1CCN(c2ccc(NC(=O)c3ccc4c(c3)OCCO4)cc2)CC1 | i | 2 | -1 | 3 | 43 | -23 | -9 | 6
Cn1c(=O)[nH]c2ncn(C)c2c1=O | i | 1 | 1 | -5 | x | 28 | x | 31
Cc1ccc(Nc2nc(COC(=O)C3CC3)cs2)cc1 | i | -5 | -2 | x | -22 | -16 | -6 | -36
COc1ccccc1CN1C[C@@H]2C[C@@H](c3ccccc3C)N3CCC[C@@]23C1=O | x | 1 | 6 | 0 | -1 | x | 5 | 12
C=CCCC1CN(CCCC)S(=O)(=O)c2c(F)cccc2O1 (centres undefined) | x | -2 | -3 | x | x | -8 | x | 2
CCOc1ccccc1NC(=O)c1c(NC(=O)CCC(=O)O)sc2c1CCCCC2 | x | -29 | 0 | x | 14 | x | 9 | 17
C=CCn1c(SCC(=O)NCc2ccccc2)nnc1-c1ccccc1O | i | 2 | 6 | 3 | -10 | -10 | -1 | -43
Cc1ccc(C)c(NC(=S)NCCN2CCOCC2)c1 | i | 9 | 5 | x | x | -14 | x | x
COc1ccccc1CNS(=O)(=O)c1cc2c3c(c1)C(C)C(=O)N3CCC2 (centres undefined) | i | 2 | -8 | -9 | x | 56 | x | 2
CC(=O)NC1=NC(=O)/C(=C/c2cn(C(C)=O)nc2-c2ccccc2)S1 | x | -43 | -14 | -21 | -5 | x | -6 | 32
O=c1cc(NCCO)c2ccccc2o1 | i | -3 | 4 | -2 | 6 | -16 | 2 | x
CC(NC(=O)c1cc(S(=O)(=O)N2CCCC2)cn1C)c1ccccc1 (centres undefined) | i | -5 | -2 | -10 | -14 | -2 | -9 | 16
CCN(CC)S(=O)(=O)c1ccc(-c2nnc(SCC(=O)Nc3ccc(OC)cc3)o2)cc1 | i | 1 | 0 | -4 | -7 | 3 | -12 | 3
CCCC(=O)Nc1ccccc1NC(=O)c1ccc(OCC)cc1 | i | -2 | -2 | -13 | -4 | x | -6 | 22
Cc1ccc(NC(=O)C2(c3ccc([N+](=O)[O-])cc3)CCCC2)cc1 | i | -4 | -7 | 5 | 4 | 4 | 4 | 5
Cc1cc(NNC(=O)c2cccc(C(F)(F)F)c2)nc2c1c(C)nn2C | x | 6 | -30 | 3 | -10 | x | -6 | 16
O=C(CSCCSCC(=O)c1ccco1)c1ccco1 | i | x | x | x | 21 | x | 18 | x
CC(C)[C@H]1COCCS(=O)(=O)N1Cc1ccccc1-c1ccccc1 | x | -4 | -1 | x | x | -10 | x | -14
O=C(Nc1cccnc1)c1cc2c(s1)-c1ccccc1OC2 | i | 1 | -3 | 23 | -12 | -9 | 9 | -1
CC(NC(=O)Cc1ccc(Br)cc1)c1ccccc1 (centres undefined) | i | -2 | 1 | -8 | -9 | -15 | -1 | 1
